Screens as filed in PubChem BioAssay.
Resorufin autofl = compounds fluorescent in resorufin spectral region. hit rate 0.04% among 59,000. Compound fluorescence, resorufin region 547/598 nm, buffer; active compounds read high. AID 588. max dye-equivalent concentration, M; active = above 10 nM dye equivalent; inconclusive = 1 to 10 nM; inactive = 1 nM or less; a few of its hits are not listed in these tables; note: highest value over a series up to 38 µM
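Compounds in 100 mM Tris, pH 8.0, incubated 15 min at room temperature, then fluorescence read at 547 nm excitation/598 nm emission. Signal converted to dye-equivalent concentration via an on-plate six-point resorufin standard curve, per compound concentration.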
A647 fluor = compound autofluorescence in A647 spectral region; Compound fluorescence, A647 channel (570/671 nm), Tris buffer; max dye-equivalent concentration, M; 59,000 tested, under 10 active; AID 592; active means above 1 µM dye equivalent; inconclusive means 0.1 to 1 µM; inactive means 0.1 µM or less;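 note: values scaled relative to a standard on each plate; highest value over a series up to 38 µM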
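Fluorescence read (570 nm ex, 671 nm em) after 15 min RT incubation of compounds in 100 mM Tris buffer, pH 8.0; values expressed as dye-equivalent concentration against a six-point A647 standard series on each plate.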
TSHR agonist = agonists of human thyroid stimulating hormone receptor; HEK293-CNG-TSHR cells (CNG channel as cAMP sensor), membrane potential dye, cAMP; Potency, µM (titrated, usually from 57.1 µM), for inactives: at the top dose activation, hits mostly activators; hit rate 0.48% among 73,000; AID 926; active = well fitted activation curve of enough size with the parental cells flat; inconclusive = any curve in the parental cells; inactive = parental cells flat and receptor cells flat or falling; note: potency is the fitted concentration of half-maximal effect; % of control where 0% means no effect; weak receptor curves with flat parental cells got no call and are not listed
Target sequence (P16473 whole entry, looked up): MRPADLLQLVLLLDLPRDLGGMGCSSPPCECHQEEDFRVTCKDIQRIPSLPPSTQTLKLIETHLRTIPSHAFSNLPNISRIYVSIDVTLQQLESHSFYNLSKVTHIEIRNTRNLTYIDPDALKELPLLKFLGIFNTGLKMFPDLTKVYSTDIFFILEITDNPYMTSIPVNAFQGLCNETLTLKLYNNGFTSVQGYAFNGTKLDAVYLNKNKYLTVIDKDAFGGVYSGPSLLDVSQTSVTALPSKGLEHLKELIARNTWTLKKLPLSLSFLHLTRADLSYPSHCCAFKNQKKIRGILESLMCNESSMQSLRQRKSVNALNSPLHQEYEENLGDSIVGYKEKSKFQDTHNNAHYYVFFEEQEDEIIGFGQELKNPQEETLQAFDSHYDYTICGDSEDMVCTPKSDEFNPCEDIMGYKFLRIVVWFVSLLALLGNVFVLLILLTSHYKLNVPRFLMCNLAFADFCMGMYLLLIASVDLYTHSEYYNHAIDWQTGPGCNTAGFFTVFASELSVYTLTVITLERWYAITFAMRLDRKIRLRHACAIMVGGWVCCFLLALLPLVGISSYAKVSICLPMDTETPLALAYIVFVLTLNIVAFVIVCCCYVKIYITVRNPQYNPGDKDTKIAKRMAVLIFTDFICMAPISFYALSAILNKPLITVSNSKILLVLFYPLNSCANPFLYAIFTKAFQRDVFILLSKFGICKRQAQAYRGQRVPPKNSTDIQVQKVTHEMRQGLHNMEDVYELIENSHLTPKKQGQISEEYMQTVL
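HEK 293 cells stably expressing TSHR and a modified CNG channel, with CNG-only parental cells as counterscreen, were preloaded 60 min at room temperature with membrane potential dye containing 100 uM RO 20-1724. Compound exposure was 30 min, and depolarization was read as fluorescence at 590 nm.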
A488 autofl = compound fluoresces in the A488 spectral region; compound autofluorescence, A488 spectral region, dye equivalency; active compounds read high; max dye equivalency, M; hit rate 0.1% among 59,000; AID 591; active = above 10 nM dye equivalent; inconclusive = 1 to 10 nM; inactive = 1 nM or less; about half of its hits are not listed in these tables;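 note: highest value over a series up to 38 µM; compound alone in buffer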
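Read-out: relative fluorescence at 480/540 nm, expressed as Alexa 488 dye-equivalent concentration from a six-point A488 standard included per plate. Conditions: 100 mM Tris, pH 8.0; 15 min incubation, room temperature.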
AID923 = qHTS Assay for Allosteric/Competitive Inhibitors of Caspase-1: Spectroscopic Profiling in AFC Spectral Region; Potency, µM (doses to about 57.5 µM), for the others: top-dose fluorescence increase, actives largely listed as activators; compound fluorescence, AFC spectral region (405/520 nm); almost no hit is shown here; hit rate 1.1% among 75,000; active = well fitted activation curve with a large enough effect; inconclusive = small, poorly fitted or top-dose-only effect;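 note: potency is the fitted concentration of half-maximal effect; 0% is about no effect; scaled to a free AFC standard on each plate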
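Baseline compound fluorescence (AFC region, 405 nm ex/520 nm em) taken from the intercept of kinetic reads with 50 nM caspase-1 and 5 uM Ac-WEHD-AFC; normalized to an on-plate AFC standard curve; compounds titrated up to 57 uM.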
* hit, by the source's call; i = inactive; ? = inconclusive; . = not tested or not shown; & = joins results of further samples; [ ] = another dose, or the depositor's remark. These rows are one share of the data (hit frequency here may not be typical).

smiles,Resorufin autofl,A647 fluor,TSHR agonist,A488 autofl,AID923
CCN(CC)c1ccc(CC2C(=O)N(C)C(=O)N(C)C2=O)cc1,.,.,0%,.,1.3%
NCCc1ccc(S(=O)(=O)F)cc1,i,1e-09,.,i,0.5%
CCOC(=O)C1SC2(C(F)(F)F)CC1(O)c1c(C)cc(C)nc1O2 (stereo not drawn),i,2.5e-08,?,i,1.6%
C[C@@]12CC[C@H](O)C[C@@H]1CC[C@@H]1[C@@H]2CC[C@@]2(C)[C@@H](C3=CC(=O)OC3)[C@H](O)C[C@]12O,i,4.8e-08,19%[11.4 µM],i,1.4%[11.5 µM]
CCOc1cc(C=O)ccc1O,.,.,8%,.,1.8%
CC1(C)N=C(N)N=C(N)N1c1cccc(C(=O)Nc2ccc(S(=O)(=O)F)cc2)c1,i,1e-09,4%[11.4 µM],i,-2.8%[11.5 µM]
CN1CCN(c2ccc(C(N)=O)cc2N)CC1,i,3.4e-08,0%,i,0.9%
CCOC(=O)N(c1ccccc1)P1(=S)OCCO1,i,3e-08,4%,i,-2.2%
CC1N(O)C2CCCCCC2N1O (stereo not drawn),i,2e-08,4%,i,3.7%
C[C@H](CC(C#N)(c1ccccc1)c1ccccc1)N1CCCCC1,i,2.3e-08,4%[11.4 µM],i,0.6%[11.5 µM]
OCC1(CO)COC(c2cccnc2)N1 (stereo not drawn),i,3.5e-09,-1%,i,-1.3%
Cc1ccc2c(c1)CC1(CN2C)C(=O)NC(=O)N(c2cc(C)ccc2C)C1=O (stereo not drawn),i,3.6e-08,0%[11.4 µM],i,-0.3%
CC(C)c1ccc(O)c(CN2CCN(c3ccccc3)CC2)c1,i,4e-08,?,i,-0.5%
CN1C[C@H](CO)C=C2c3cccc4[nH]cc(c34)C[C@H]21,i,6.5e-09,-2%,i,.
COCCOC(=O)C1=C(N)Oc2c(c(=O)oc3ccccc23)C1c1ccncc1 (stereo not drawn),i,1e-09,4%,i,2.0%
COC[C@H]1OC(=O)c2coc3c2[C@@]1(C)C1=C(C3=O)[C@H]2CCC(=O)[C@@]2(C)C[C@H]1OC(C)=O,.,.,-1%,.,5.3%
CN1CCC(n2nccc2N)CC1,i,1.4e-08,-4%,i,-1.3%
CC(C)NS(=O)(=O)c1ccc(OCC(=O)N2CCN(C)CC2)cc1,.,.,-6%,.,0.0%
C=CCCN1C[C@@H]2C[C@H](C1)c1cccc(=O)n1C2,i,1e-09,-5%,i,.
CCCCOc1ccc(CC2C(=O)N(C)C(=O)N(C)C2=O)cc1,.,.,4%[11.4 µM],.,1.3%
COc1cc2c(cc1O)C[C@H]1c3c(cc(OC)c(O)c3-2)CCN1C,i,1e-09,-5%,i,13%
CCCCOCC1CO1 (stereo not drawn),.,.,1%,.,-1.5%
Cc1ccc2c(c1)C(c1ccccc1)NCC(=O)N2 (stereo not drawn),i,1e-09,0%,i,1.6%
CCCC(C)(COC(N)=O)COC(N)=O,.,.,2%,.,0.8%
O=C(C(Cc1ccccc1)NS(=O)(=O)c1cccc2nsnc12)N1CCC2(CC1)OCCO2 (stereo not drawn),i,3.5e-08,2%,i,-1.0%
COc1cccc(-n2c(C)nc3ccccc3c2=O)c1,i,4.7e-08,.,i,.
C=CCn1c(O)c(C=Nc2ccc(OC)cc2C)c(=O)[nH]c1=O,i,1e-09,6%,i,2.8%
N#CC(C#N)=NNc1cccc(Cl)c1,.,.,?,.,-5.0%
COCc1cc(C2SCC(=O)Nc3c2c(=O)[nH]n3C(C)C)ccc1OC (stereo not drawn),i,5.3e-09,-1%,i,-0.7%
O=P(O)(OP(=O)(O)c1ccccc1)c1ccccc1 (tested in a mixture with another compound),i,1.6e-08,1%[11.4 µM],i,4.4%[11.5 µM]
CCCN1CCC[C@H](c2cccc(C#N)c2)C1,i,5.1e-08,?,i,14%
Cl/C=C/CCl,.,.,-8%,.,-0.7%
O=C(Cn1c(=O)c(C(F)(F)F)nc2ccccc21)N1CCC2(CC1)OCCO2,i,4.5e-09,-15%,i,4.8%
CC(C)CON=O,.,.,4%,.,-0.3%
CN1CCc2c(c(N3CCCCC3)nc3n[nH]c(N)c23)C1,i,2.6e-08,.,i,.
COc1ccc2c(c1OC)C(=O)OC2C1c2cc3c(cc2CCN1C)OCO3 (stereo not drawn),.,.,18%,.,1.2%&8.8%
C[C@H]1CCCC=CC2C[C@H](O)C[C@@H]2[C@H](O)/C=C\C(=O)O1 (stereo partly drawn),.,.,-3%,.,-0.6%
CCCCC1(C2CCCC2)Cc2cc(OCCCC(=O)O)c(Cl)c(Cl)c2C1=O (stereo not drawn),.,.,?,.,0.2%
Cc1ccc(C2N(c3cc(C)on3)C(=O)C3CCCN32)cc1 (stereo not drawn),i,1e-09,7%,i,0.1%
CCC(=O)O[C@@](Cc1ccccc1)(c1ccccc1)[C@@H](C)CN(C)C,i,4.4e-09,11%[25.6 µM],i,-2.2%[25.7 µM]
CNC(=O)ON(C(=O)NC)C1N(C)C(=S)SC1(C)C (stereo not drawn),i,5.2e-09,0%,i,-0.3%
COc1ccc(CN2CCN(c3ccccc3)CC2)c(C)c1C,.,.,17%,.,0.4%
c1ccc(N=NNc2ccccc2)cc1,.,.,?,.,1.2%
Nc1nnc(CCN2CCCCC2)s1,i,3.1e-08,2%,i,0.0%
O=P(O)(O)COc1ccccc1O,i,3.3e-08,0%,i,-1.2%
Cc1ccc(N)c(N)c1,.,.,15%,.,1.0%
CCCN1CCO[C@@H]2c3cc(O)ccc3OC[C@H]21,i,4.5e-08&1.1e-08,?,i,-2.1%&-1.0%
O=C1CC(=O)N(c2ccc3c(c2)OCO3)C(=O)N1,i,1e-09,-1%,i,-1.1%
CN=C(SCc1ccccc1)c1c(O)n(C)c(=O)n(C)c1=O,i,1.9e-08,-3%,i,-0.4%
Cn1c(O)c(C=NCc2ccco2)c(=O)n(C)c1=O,.,.,-7%,.,4.6%
C=CCn1c(O)c(C=NCCN(C)C)c(=O)[nH]c1=O,i,1e-09,.,i,.
CCC(=NCCCN(C)C)c1c(O)n(-c2ccc(OC)cc2)c(=O)[nH]c1=O,i,1e-09,7%,i,0.4%
CCC(=NCc1ccco1)c1c(O)n(C2CCCCC2)c(=O)[nH]c1=O,i,3.3e-08,-1%[11.4 µM],i,-0.9%
CCOC(=O)C1OC1(C)c1ccccc1 (stereo not drawn),.,.,3%,.,3.7%
c1ccc([C@H]2CNCc3ccccc32)cc1,.,.,0%,.,-2.8%
Cc1ccc(C2C(S(C)(=O)=O)=C(O)C(=O)N2c2ccccc2)cc1 (stereo not drawn) (tested in a mixture with another compound),i,1e-09,9%,i,-1.3%
Nc1ccc(Cl)cc1N,.,.,?,.,0.8%
Cc1nc2ccccc2c(=O)n1-c1ccccn1,.,.,2%,.,-0.4%
O=P(OCC(F)(F)C(F)F)(N1CCOCC1)N1CCOCC1,i,2.2e-08,14%,i,1.0%
O=C(c1cc2nc(-c3ccccc3)cc(-c3ccccc3)n2n1)N1CCC2(CC1)OCCO2,i,1e-09,.,i,13%

Following part:
smiles,Resorufin autofl,A647 fluor,TSHR agonist,A488 autofl,AID923
CCOCCCN=Cc1c(O)n(Cc2ccccc2)c(=O)[nH]c1=O,i,2e-08,5%,i,0.0%
O=C(O)[C@H]1CCN1,i,5.6e-09,9%,i,-0.9%
CC(C)NP(=O)(NC(C)C)OP(=O)(NC(C)C)NC(C)C,i,3e-09,9%,i,-1.0%
CCOC(=O)C1=C(N)Oc2cc(C)oc(=O)c2C12C(=O)N1c3c(cc(OC)cc32)C(C)=CC1(C)C (stereo not drawn),i,1e-09,-8%,i,-2.8%
O=c1[nH]c(=O)n(Cc2ccc(F)cc2)c(O)c1C=NCCCN1CCOCC1,i,1e-09,1%,i,-1.4%
CC12CN3CC(C)(CN(C1)C3c1cccnc1)C2=O (stereo not drawn),.,.,-17%,.,1.7%
O=C(Cc1ccccc1)Oc1cccc(N2C(=O)CCC2=O)c1,.,.,3%,.,3.3%
Cc1cccc(CS(=O)(=O)Cc2ccc(C(=O)N3CCC4(CC3)OCCO4)o2)c1,i,1.1e-08,13%,i,-0.1%
CCCCSP1(=S)NCCCO1 (stereo not drawn),i,1e-09,.,i,.
C=C(CC1(C(C)NP(=O)(c2ccccc2)c2ccccc2)CC1)c1ccccc1 (stereo not drawn),.,.,?,.,1.3%
CC(C)C(=O)N1CCN(CCN=Cc2c(O)n(C)c(=O)n(C)c2=O)CC1,i,4.1e-08,.,i,.
CC(=O)C1(c2ccccc2)CCNCC1,i,1.7e-09,.,i,.

Some entries already given with just Resorufin autofl.
mol	Resorufin autofl
CCOC(=O)C1=C(N)Oc2cc(C)oc(=O)c2C12C(=O)N1c3c(cc(OC)cc32)C(C)=CC1(C)C (stereo not drawn)	i
O=c1[nH]c(=O)n(Cc2ccc(F)cc2)c(O)c1C=NCCCN1CCOCC1	i

Remaining list, next part
smiles,Resorufin autofl,A647 fluor,TSHR agonist,A488 autofl,AID923
CC(c1ccccc1)n1cncc1C(=O)N1CCCC1=O (stereo not drawn),i,1e-09,-2%,i,-0.4%
c1ccc2c(NC3=NCCS3)cccc2c1,i,1.2e-08,22%,i,3.8%
Cc1c(N=Cc2c(O)n(Cc3ccco3)c(=O)[nH]c2=O)c(=O)n(-c2ccccc2)n1C,i,2.1e-08,.,i,.
Cc1c(N)cccc1N,.,.,?,.,8.6%
Cc1ccc(C2CC(=O)C(C=NCCN3CCN(C(=O)Cc4ccccc4)CC3)=C(O)C2)cc1 (stereo not drawn),i,1e-09,?,i,-0.3%
Cc1ccc(OCC(=O)N2CCN(CC3CC4C=CC3C4)CC2)cc1 (stereo not drawn),i,1.6e-08,15%,i,0.0%
CC(C)c1cccc(C(C)C)c1OCCn1ccnc1,i,1e-09,?,i,-0.4%
O=c1[nH]c(=O)n(C2CCCCC2)c(O)c1C1NCCc2ccccc21 (stereo not drawn),i,4.3e-08,1%,i,0.5%
CN(C)[C@@H]1C(=O)C(C(N)=O)=C(O)[C@@]2(O)C(=O)C3=C(O)c4c(O)cccc4[C@@](C)(O)[C@H]3[C@H](O)[C@@H]12,i,8.6e-09,-6%,i,4.3%

One compound at a time (already shown). Order of values: Resorufin autofl, A647 fluor, TSHR agonist, A488 autofl, AID923
Entry for CCOc1cc(C=O)ccc1O → ., ., 8%, ., 1.8%
Entry for O=c1[nH]c(=O)n(Cc2ccc(F)cc2)c(O)c1C=NCCCN1CCOCC1 → i, 1e-09, 1%, i, -1.4%
Entry for CCCN1CCO[C@@H]2c3cc(O)ccc3OC[C@H]21 → i, 4.5e-08&1.1e-08, ?, i, -2.1%&-1.0%
Entry for Cl/C=C/CCl → ., ., -8%, ., -0.7%
